eIF4H inh – inhibitors of RNA binding by human eIF4H. eIF4H fluorescence polarization binding assay. inhibition, % at 35 µM. hit rate 0.94% among 290,000;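 active = 50% or more with normal probe brightness, or confirmed in later tests; about a fifth of its hits are not listed in these tables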;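 note: calls also rest on retests at 20 µM and on dose response follow-up; 0% = protein and probe with vehicle and 100% = probe without protein; strong numbers were not always called active; many hits fall short of the cut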
Env fusion inh – blocks HIV Env-driven cell-cell fusion; inhibition, % at 12.3 µM; HeLa-JRFL Env/CEM21 cell fusion, luciferase; hit rate 1.1% among 360,000;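 active = mean replicate inhibition score of at least 50 and every replicate individually at or above 50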;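 note: 0% = plate neutral controls and 100% = maraviroc near 300 nM; one replicate is shown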
MT1-MMP act inh – inhibitors of human MT1-MMP activation; GFP/RFP ratio change, % at 20 µM; P50281; HT1080 RFP-PRO-GFP cells, GFP/RFP ratio fluorescence, overnight; percent of plate control window, DMSO zero; hit rate 0.061% among 360,000;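 active = GFP/RFP ratio change of at least 30% with cell ATP level not reduced by more than half and red fluorescence within 50% of control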; note: strong numbers were not always called active
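Compound: 20 µM single dose, 1% DMSO / System: HT1080 RFP-PRO-GFP cells / Controls: DMSO and RFP-L50D-GFP cell wells / Read-out basis: GFP/RFP fluorescence ratio / Schedule: overnight compound exposure at 37 °C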
UUG fidelity – alters start codon recognition fidelity in yeast. S. cerevisiae UUG-firefly luciferase reporter, luminescence/redox ratio. hit rate 0.13% among 350,000. activity score, % at 18.7 µM;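 active = replicate mean at a twofold rise or more, about +100% in these data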;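 note: firefly luciferase made from a UUG start codon reports start codon fidelity; reporter light over untreated wells divided by growth signal over untreated wells; some hits fall short of that in this replicate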
Rce1 inh – yeast Ras-converting enzyme inhibition; Q03530; yeast membranes, quenched prenylated peptide cleavage fluorescence; calls only; hit rate 0.27% among 290,000; AID 2563;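 active = fall in fluorescence gain of 50% or more versus controls, with final raw signal at or below 3038400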;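 note: plate controls were neutral control wells for no effect and wells lacking membranes for full effect; tested at 10 µM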
Target sequence (Q03530 whole entry, looked up): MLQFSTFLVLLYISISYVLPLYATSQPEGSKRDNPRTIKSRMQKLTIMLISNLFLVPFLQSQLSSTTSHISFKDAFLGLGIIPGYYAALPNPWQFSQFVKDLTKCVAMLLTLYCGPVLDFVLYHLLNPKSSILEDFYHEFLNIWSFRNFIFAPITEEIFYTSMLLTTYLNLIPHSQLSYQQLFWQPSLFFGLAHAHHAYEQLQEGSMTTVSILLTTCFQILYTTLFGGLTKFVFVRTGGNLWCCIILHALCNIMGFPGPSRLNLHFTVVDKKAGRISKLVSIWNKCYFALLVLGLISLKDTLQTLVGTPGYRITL
CSC inhib – blocks cancer stem cells; hit rate 1.1% among 300,000; inhibition, % at 7.5 µM; cancer stem cell-like cells viability, luminescence;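 active = mean at 75% or more and at least half the replicates too; tested in HMLE shEcad cells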;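 note: 0% = median of negative and 100% = median of positive control wells; the first replicate is given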
PABP FP inh – PABP-poly(A) binding inhibition. hit rate 1% among 290,000. AID 2014. P11940. PABP-poly(A) RNA binding, fluorescence polarization. inhibition, % at 35 µM;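 active = 50% or more with normal probe brightness, or confirmed in later tests; about a fifth of its hits are not listed in these tables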;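 note: calls also rest on retests at 20 µM and on dose response follow-up; controls were probe without protein and protein plus probe with vehicle; some compounds called inactive have numbers as strong as hits; many hits fall short of the cut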
Target sequence (P11940 whole entry, looked up): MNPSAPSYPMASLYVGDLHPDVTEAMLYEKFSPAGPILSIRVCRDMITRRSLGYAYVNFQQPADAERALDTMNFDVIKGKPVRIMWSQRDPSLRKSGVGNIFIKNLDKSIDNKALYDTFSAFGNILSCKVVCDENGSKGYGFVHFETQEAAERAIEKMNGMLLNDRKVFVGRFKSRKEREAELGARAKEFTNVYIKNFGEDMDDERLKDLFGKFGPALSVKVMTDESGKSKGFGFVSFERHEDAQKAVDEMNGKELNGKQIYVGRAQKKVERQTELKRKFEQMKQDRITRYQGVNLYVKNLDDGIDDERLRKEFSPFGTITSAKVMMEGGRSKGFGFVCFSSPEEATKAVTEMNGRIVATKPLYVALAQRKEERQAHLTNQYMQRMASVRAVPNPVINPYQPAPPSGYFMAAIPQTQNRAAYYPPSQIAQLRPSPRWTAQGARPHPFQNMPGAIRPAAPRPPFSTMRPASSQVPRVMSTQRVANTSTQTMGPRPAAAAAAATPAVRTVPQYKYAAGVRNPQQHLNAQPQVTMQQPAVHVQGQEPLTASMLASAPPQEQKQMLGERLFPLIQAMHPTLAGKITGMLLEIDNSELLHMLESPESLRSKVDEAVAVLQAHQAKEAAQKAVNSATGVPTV
MT1-MMP act inh RFP – further read-out of MT1-MMP act inh, marked with its call; RFP signal change, %; measured here: RFP expression control read;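 0 = vehicle wells; hits needed this value within 50% of zero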
Active calls of the source: *.

`O=C(Nc1cccnc1Cl)C1c2ccccc2Oc2ccccc21` gave eIF4H inh -17, MT1-MMP act inh 0, UUG fidelity -7, Rce1 inh inactive, CSC inhib -6, PABP FP inh 4 and MT1-MMP act inh RFP 0.
Screening O=C(c1ccc(Br)cc1)c1cn[nH]c1-c1ccccc1O returned eIF4H inh -2, Env fusion inh -7, MT1-MMP act inh 2, Rce1 inh inactive, CSC inhib -7, PABP FP inh -5 and MT1-MMP act inh RFP 0.
For CCC(Sc1nncn1C)C(=O)Nc1cc(C)on1 (stereo not given) the results were eIF4H inh 5, Env fusion inh 16, MT1-MMP act inh 0, Rce1 inh inactive, CSC inhib -2, PABP FP inh -1 and MT1-MMP act inh RFP -4.
Screening C=C(C)CSc1nc2ncc(Cl)cc2[nH]1 returned eIF4H inh 2, Env fusion inh -19, MT1-MMP act inh 0, UUG fidelity 0, Rce1 inh inactive, CSC inhib -10, PABP FP inh -4 and MT1-MMP act inh RFP 4.
Screening Cc1cc2cc(C)c3nnc(SCC(=O)N4CCN(C(=O)c5ccco5)CC4)n3c2cc1C returned MT1-MMP act inh 9, Rce1 inh inactive, CSC inhib 5 and MT1-MMP act inh RFP 0.
Screening O=C(CN1CCCCCC1)Nc1ccccc1OC(F)F returned eIF4H inh -5, Env fusion inh 12, MT1-MMP act inh -1, UUG fidelity -15, Rce1 inh inactive, CSC inhib -2, PABP FP inh 9 and MT1-MMP act inh RFP 2.
Cc1ccc(N=C2CCCCCN2C)c(C#N)c1 was read as eIF4H inh 6, Env fusion inh -31, MT1-MMP act inh 10, UUG fidelity -9, CSC inhib -12, PABP FP inh 14 and MT1-MMP act inh RFP 5.
For O=C(NCC(=O)N(Cc1cccs1)C(C(=O)NC1CCCCC1)c1cccnc1)c1ccco1 (stereo not given) the results were eIF4H inh -1, MT1-MMP act inh 0, UUG fidelity -21, Rce1 inh inactive, CSC inhib -24, PABP FP inh -2 and MT1-MMP act inh RFP 1.
For COc1ccc(OCC(=O)NC(=S)N2CCCc3ccccc32)cc1 the results were eIF4H inh 12, MT1-MMP act inh -2, Rce1 inh inactive, CSC inhib 8, PABP FP inh 36 and MT1-MMP act inh RFP 2.
CCCOC(=O)C1C2C=CC3(CN(c4cccc(Cl)c4)C(=O)C13)O2 (stereo not given) was read as eIF4H inh -12, Env fusion inh -14, MT1-MMP act inh 0, UUG fidelity 0, Rce1 inh inactive, PABP FP inh -14 and MT1-MMP act inh RFP 2.
Screening Cc1cc(C)cc(Cn2c(C)c(C(=O)N(C)Cc3ccc(F)cc3)sc2=O)c1 returned Env fusion inh 15, MT1-MMP act inh 2, UUG fidelity -13 and MT1-MMP act inh RFP -6.
`CCOC(=O)c1c(N)nn(C(=O)CC)c1-c1ccccc1` gave eIF4H inh 1, Env fusion inh -14, MT1-MMP act inh 3, UUG fidelity -18, Rce1 inh inactive, CSC inhib -10, PABP FP inh 4 and MT1-MMP act inh RFP 11.
`COc1ccc(C(=O)Nc2cc(OC)c(Cl)cc2OC)cc1` gave eIF4H inh -7, Env fusion inh -26, MT1-MMP act inh -1, Rce1 inh inactive, CSC inhib -4, PABP FP inh -9 and MT1-MMP act inh RFP 3.
For CCOC(=O)C(NC(=O)Nc1ccc(F)cc1)(OCC)C(F)(F)F (stereo not given) the results were eIF4H inh -4, MT1-MMP act inh 5, UUG fidelity -8, Rce1 inh inactive, CSC inhib -7, PABP FP inh -11 and MT1-MMP act inh RFP 4.
Screening CCc1nnc(NC(=O)CSc2nc3cc4c(cc3cc2CC)OCCO4)s1 returned eIF4H inh 1, MT1-MMP act inh 3, UUG fidelity -6, Rce1 inh inactive, CSC inhib -4, PABP FP inh -6 and MT1-MMP act inh RFP 4.
For COc1ccc(NC(=O)CSc2nc3c([nH]c4ccccc43)c(=O)n2C)c(OC)c1 the results were eIF4H inh 11, Env fusion inh -41, MT1-MMP act inh 2, UUG fidelity -20, Rce1 inh inactive, CSC inhib -8, PABP FP inh 12 and MT1-MMP act inh RFP 2.
COC(=O)Nc1ncc(CN2CCc3ccccc3C2)s1 was read as eIF4H inh 4, MT1-MMP act inh 2, UUG fidelity -17, Rce1 inh inactive, CSC inhib -10, PABP FP inh 12 and MT1-MMP act inh RFP 6.
For O=C(COc1ncnc2sccc12)N1CCc2ccccc2C1 the results were eIF4H inh 0, Env fusion inh -37, MT1-MMP act inh 8, UUG fidelity -8, Rce1 inh inactive, CSC inhib -9, PABP FP inh -2 and MT1-MMP act inh RFP 2.
Screening O=C(NCC(c1ccco1)N1CCc2ccccc2C1)c1ccc(Br)cc1 (stereo not given) returned Env fusion inh -7, MT1-MMP act inh 2, Rce1 inh inactive, CSC inhib -7 and MT1-MMP act inh RFP -3.
For CCCOCc1ccc(O)c2ncccc12 the results were eIF4H inh 4, Env fusion inh 16, MT1-MMP act inh 13, UUG fidelity -27, Rce1 inh inactive, CSC inhib 32, PABP FP inh -1 and MT1-MMP act inh RFP 2.
O=C1C=C(c2ccc3ncccc3c2)C[C@@H](c2ccc(F)cc2)C1 was read as MT1-MMP act inh 1, UUG fidelity -15, CSC inhib 18 and MT1-MMP act inh RFP -5.
For COCCN(C(=O)COC(=O)CCc1nc2ccccc2s1)c1c(N)n(Cc2ccccc2)c(=O)[nH]c1=O the results were eIF4H inh 0, Env fusion inh 4, MT1-MMP act inh -1, UUG fidelity -5, Rce1 inh inactive, CSC inhib -1, PABP FP inh 3 and MT1-MMP act inh RFP 2.
`CCc1nnc(NC(=O)c2cccc(S(=O)(=O)N3CCN(C(C)=O)CC3)c2)s1` gave Env fusion inh -11, MT1-MMP act inh -2, UUG fidelity -44 and MT1-MMP act inh RFP 0.
For CN(c1cc2c(c3c1ccn3C)C1CCC2C1)C1CCCCC1 (stereo not given) the results were Env fusion inh -10, MT1-MMP act inh 35*, UUG fidelity -3 and MT1-MMP act inh RFP 46*.
`C/C(=N\NC(=O)c1ccc(NS(=O)(=O)c2cccs2)cc1)c1ccc(Cl)cc1` gave eIF4H inh 1, Env fusion inh -12, MT1-MMP act inh 1, Rce1 inh inactive, CSC inhib 3, PABP FP inh -1 and MT1-MMP act inh RFP -1.
For C=CCNC(=O)C(=O)c1cccn1-c1ccsc1C(=O)OC the results were eIF4H inh 1, Env fusion inh -59, MT1-MMP act inh 3, UUG fidelity -1, Rce1 inh inactive, CSC inhib 1, PABP FP inh 3 and MT1-MMP act inh RFP 4.
`CCCCNC(=O)C1c2ccccc2C(=O)N(c2ccc(OC)cc2)C1c1ccc(OC)cc1` (stereo not given) gave eIF4H inh -3, Env fusion inh 12, MT1-MMP act inh -2, UUG fidelity -17, Rce1 inh inactive, PABP FP inh -6 and MT1-MMP act inh RFP 0.
COC(=O)c1ccc(COc2ccc(C)cc2[N+](=O)[O-])o1 was read as eIF4H inh 3, Env fusion inh 8, MT1-MMP act inh 2, UUG fidelity -8, Rce1 inh inactive, CSC inhib -6, PABP FP inh 6 and MT1-MMP act inh RFP -4.
COc1cccc(N2CCN(C(C)C(=O)NC34CC5CC(CC(C5)C3)C4)CC2)c1 (stereo not given) was read as eIF4H inh 4, Env fusion inh 14, MT1-MMP act inh 0, UUG fidelity -5, Rce1 inh inactive, CSC inhib 3, PABP FP inh 9 and MT1-MMP act inh RFP -5.
`Cc1ccccc1NC(=O)C1c2cccc[n+]2CC(=O)N1Cc1ccc2c(c1)OCO2` (stereo not given) gave eIF4H inh 0, Env fusion inh -11, MT1-MMP act inh -6, UUG fidelity -15, Rce1 inh inactive, CSC inhib -11, PABP FP inh 5 and MT1-MMP act inh RFP 1.
Screening O=C(Cc1ccccc1)NCc1cccnc1 returned eIF4H inh -12, Env fusion inh 12, MT1-MMP act inh -2, UUG fidelity -19, Rce1 inh inactive, CSC inhib 5, PABP FP inh -2 and MT1-MMP act inh RFP 4.
Screening CCOC(=O)c1c(C)[nH]c(C)c1S(=O)(=O)NCC1CCN(Cc2cccc(F)c2)CC1 returned eIF4H inh 3, Env fusion inh 16, MT1-MMP act inh 0, UUG fidelity -19, Rce1 inh inactive, CSC inhib -8, PABP FP inh 2 and MT1-MMP act inh RFP 1.
Screening O=C(OCC(=O)N1CCc2ccccc21)c1ccc[n+]([O-])c1 returned eIF4H inh 6, Env fusion inh -31, MT1-MMP act inh 12, UUG fidelity 2, Rce1 inh inactive, CSC inhib -3, PABP FP inh -2 and MT1-MMP act inh RFP 11.
Cc1ccc2oc(-c3cccc(NC(=O)Cn4cnc5c(=O)n(C)c(=O)n(C)c54)c3)nc2c1 was read as eIF4H inh -8, Rce1 inh inactive, CSC inhib 10 and PABP FP inh 3.
Cc1nnc(N/N=C/c2ccccn2)[nH]c1=O was read as eIF4H inh 24, Env fusion inh -94, MT1-MMP act inh 16, UUG fidelity -23, Rce1 inh inactive, CSC inhib 121*, PABP FP inh 0 and MT1-MMP act inh RFP 3.
Screening CCOc1ccccc1NC(C)C(=O)Nc1cc(C(F)(F)F)ccc1N1CCOCC1 (stereo not given) returned eIF4H inh -3, Env fusion inh 21, MT1-MMP act inh -11, Rce1 inh inactive, CSC inhib 16, PABP FP inh -1 and MT1-MMP act inh RFP -2.
COc1ccc(N(C(=O)c2ccco2)C(C(=O)NC2CCCCC2)c2cccs2)cc1OC (stereo not given) was read as eIF4H inh -5, MT1-MMP act inh -6, Rce1 inh inactive, CSC inhib -18, PABP FP inh -7 and MT1-MMP act inh RFP 1.
CCOC(=O)c1c(C)n(C)c2ccc(OC)c(NC(=O)CN3CCSCC3)c12 was read as eIF4H inh -1, Env fusion inh 15, MT1-MMP act inh 1, UUG fidelity -8, Rce1 inh inactive, CSC inhib -2, PABP FP inh 2 and MT1-MMP act inh RFP 0.
COc1ccc(COc2ccc(S(=O)(=O)N3CCCC3)cc2C(N)=O)cc1F was read as eIF4H inh 0, Env fusion inh 22, MT1-MMP act inh -1, UUG fidelity -14, Rce1 inh inactive, CSC inhib -3, PABP FP inh 8 and MT1-MMP act inh RFP 0.
Screening O=C(CN1CSCC1=O)N1CCN(S(=O)(=O)c2ccc(Cl)cc2)CC1 returned MT1-MMP act inh 8, UUG fidelity -12, CSC inhib -38 and MT1-MMP act inh RFP 4.

Molecules from the list above with fluorine, in the order listed:
Screening O=C(CN1CCCCCC1)Nc1ccccc1OC(F)F returned eIF4H inh -5, Env fusion inh 12, MT1-MMP act inh -1, UUG fidelity -15, Rce1 inh inactive, CSC inhib -2, PABP FP inh 9 and MT1-MMP act inh RFP 2.
Screening Cc1cc(C)cc(Cn2c(C)c(C(=O)N(C)Cc3ccc(F)cc3)sc2=O)c1 returned Env fusion inh 15, MT1-MMP act inh 2, UUG fidelity -13 and MT1-MMP act inh RFP -6.
For CCOC(=O)C(NC(=O)Nc1ccc(F)cc1)(OCC)C(F)(F)F (stereo not given) the results were eIF4H inh -4, MT1-MMP act inh 5, UUG fidelity -8, Rce1 inh inactive, CSC inhib -7, PABP FP inh -11 and MT1-MMP act inh RFP 4.
O=C1C=C(c2ccc3ncccc3c2)C[C@@H](c2ccc(F)cc2)C1 was read as MT1-MMP act inh 1, UUG fidelity -15, CSC inhib 18 and MT1-MMP act inh RFP -5.
Screening CCOC(=O)c1c(C)[nH]c(C)c1S(=O)(=O)NCC1CCN(Cc2cccc(F)c2)CC1 returned eIF4H inh 3, Env fusion inh 16, MT1-MMP act inh 0, UUG fidelity -19, Rce1 inh inactive, CSC inhib -8, PABP FP inh 2 and MT1-MMP act inh RFP 1.
Screening CCOc1ccccc1NC(C)C(=O)Nc1cc(C(F)(F)F)ccc1N1CCOCC1 (stereo not given) returned eIF4H inh -3, Env fusion inh 21, MT1-MMP act inh -11, Rce1 inh inactive, CSC inhib 16, PABP FP inh -1 and MT1-MMP act inh RFP -2.
COc1ccc(COc2ccc(S(=O)(=O)N3CCCC3)cc2C(N)=O)cc1F was read as eIF4H inh 0, Env fusion inh 22, MT1-MMP act inh -1, UUG fidelity -14, Rce1 inh inactive, CSC inhib -3, PABP FP inh 8 and MT1-MMP act inh RFP 0.

This is a random part of the collection; overall some 2.9% were active at least once.
